# gsp agonist – agonists of gsp mutant (McCune-Albright syndrome) | gsp mutant cells, cAMP HTRF, 30 min; control for the full effect not named in the record | Potency, µM (top dose mostly 76.9 µM), without a hit: top-dose activation (cAMP increase), hits mostly activators | actives 0.13% (n = 340,000); active = well fitted activation curve with a large enough effect; inconclusive = small, poorly fitted or top-dose-only effect, or another doubt; inactive = no such curve, though single readings can be large or run the other way; cell line not stated here;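 also: phosphodiesterase inhibitor Ro 20-1724 added with compounds to block cAMP breakdown; potency is read from the fitted curve at half-maximal effect; nearly all actives have a fitted effect of over 60% in size; about a fifth of the inactives were tested at one dose only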
#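 Cells in DMEM/10% FBS with G418 were pretreated with compounds in DMSO plus […] (300 uM stock) for 30 min at 37C. cAMP was measured by HTRF (cAMP-d2 plus anti-cAMP antibody-K) after 30 min at room temperature.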
# TRPML1 blocker – blocks the human TRPML1 channel. actives 0.02% (n = 390,000). TRPML1-inducible cells, Ca2+ dye fluorescence, FDSS; active compounds read low; inhibition of EC80 agonist-evoked calcium signal. AID 624415. activity change, negative = inhibition, % (no concentration beside the values); in the data active means activity change below about -50%; inconclusive means about -30% to -50%; inactive means above about -30%;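 also: stimulus is agonist 54-4 at its EC80 concentration; % is scaled to controls: 0 for no effect and ±100 for the full control effect; compound concentration not given in the record; the text of the record puts the active cut at -80%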
#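 TRPML1-DL cells, Tet-induced overnight (~16 h, 37 °C) at 1,500 cells/well, were loaded with Ca8 no-wash dye plus quencher for 45-90 min at room temperature. Compounds were pinned during FDSS kinetic reading; agonist 54-4 at EC80 (4 uM final) then added.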
# Menin MLL FP FL – displaces fluorescein MLL peptide from human menin; Fluorescence polarization, fluorescein-MLL peptide displacement from menin; FP activity change, % at 61.4 µM; 290,000 tested, under 10 active; inconclusive = falling polarisation curve, or a change in total fluorescence; inactive = total fluorescence flat and polarisation flat or rising; no compound was filed as active; the % refers to the polarisation; negative = inhibition;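 also: % of control where 0% means no effect; inhibitors lower the polarisation; unlabelled MLL peptide was the positive control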
# TRPV1 potentiator – human TRPV1 potentiation | Q8NER1 | TRPV1-expressing cells, Fluo-8 calcium influx, capsaicin EC20 potentiation; host cell line not named in the record; control for the full effect not named in the record | potentiation, % at 8.33 µM | actives 0.02% (n = 320,000); active means potentiation above 80%; inconclusive means 30% to 80%; inactive means below 30%; also: 0% is about no effect
# Target sequence (Q8NER1 whole entry, looked up): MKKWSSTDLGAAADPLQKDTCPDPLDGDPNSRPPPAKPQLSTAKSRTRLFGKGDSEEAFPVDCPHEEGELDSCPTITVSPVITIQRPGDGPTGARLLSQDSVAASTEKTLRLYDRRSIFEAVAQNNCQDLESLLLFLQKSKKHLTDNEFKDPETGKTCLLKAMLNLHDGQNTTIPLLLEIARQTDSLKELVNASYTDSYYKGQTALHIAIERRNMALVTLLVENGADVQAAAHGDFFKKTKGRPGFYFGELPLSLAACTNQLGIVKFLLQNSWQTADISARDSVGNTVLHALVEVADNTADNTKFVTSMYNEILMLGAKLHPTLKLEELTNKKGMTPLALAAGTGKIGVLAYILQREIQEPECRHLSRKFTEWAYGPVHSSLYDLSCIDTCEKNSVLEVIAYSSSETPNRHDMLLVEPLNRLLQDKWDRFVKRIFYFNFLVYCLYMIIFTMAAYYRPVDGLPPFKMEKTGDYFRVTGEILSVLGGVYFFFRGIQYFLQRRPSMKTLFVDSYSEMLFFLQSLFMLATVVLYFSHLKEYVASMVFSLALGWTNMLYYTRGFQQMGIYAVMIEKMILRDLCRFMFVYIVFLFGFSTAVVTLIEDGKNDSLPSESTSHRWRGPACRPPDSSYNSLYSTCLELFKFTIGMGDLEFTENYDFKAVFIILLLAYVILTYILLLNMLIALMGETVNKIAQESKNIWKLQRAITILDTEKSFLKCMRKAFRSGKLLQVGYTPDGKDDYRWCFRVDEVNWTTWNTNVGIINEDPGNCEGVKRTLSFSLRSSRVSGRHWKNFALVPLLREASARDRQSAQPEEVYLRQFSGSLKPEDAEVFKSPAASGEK
#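 Cells expressing TRPV1 were dye-loaded with Fluo-8 and read kinetically: 10 s baseline, 3 min after compound (agonist portion), then 2 min after EC20 capsaicin (allosteric enhancer portion). Calcium-bound dye fluorescence at 480/520 nm.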
# Sfp inh – inhibitors of Bacillus subtilis Sfp phosphopantetheinyl transferase | Potency, µM, for the others: max response, negative = inhibition, most hits filed as inhibitors | AID 1490 | actives 3.5% (n = 310,000) | Biochemical Sfp PPTase activity, qHTS; active = well fitted inhibition curve with a large enough effect; inconclusive = small, poorly fitted or top-dose-only effect, or another doubt; inactive = no such curve, though single readings can be large or run the other way;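 also: the enzyme is Sfp with the accession as filed and its product quenches rhodamine fluorescence; potency is read from the fitted curve at half-maximal effect; 0% = enzyme reaction without inhibitor and -100% = no enzyme wells; top concentration of the series not given in the record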
#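 Step 1, compound plus 15 nM Sfp-PPTase, 15 min, room temperature. Step 2, add rhodamine-CoA (5 uM) and BHQ-2-YbbR (12.5 uM). Step 3, read 525/598 nm fluorescence at 0 and 30 min.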
# gsp antag – antagonists of gsp mutant (McCune-Albright syndrome); actives 0.4% (n = 340,000); Potency, µM (titrated, usually from 76.9 µM), without a hit: at the highest dose activity change, negative = inhibition, usual class: inhibitors; AID 624288; gsp-mutant cells, cAMP HTRF, 30 min; control for the full effect not named in the record; active = falling curve of any shape with a large fitted effect; inconclusive = falling curve, mostly with a smaller effect; inactive = flat or rising curve; cell line not stated here;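 also: intracellular cAMP measured with PDE inhibitor Ro 20-1724 present during compound exposure; potency is read from the fitted curve at half-maximal effect; % is scaled to controls: 0 for no effect and ±100 for the full control effect; nearly all actives have a fitted effect of over 65% in size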
#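 Cells in G418 medium, seeded 16-24 h, 37C; buffer exchange to DPBS + 1 mM CaCl2, 0.5 mM MgCl2, 0.05% BSA; cpds in DMSO + […] (300 uM stock), 30 min 37C; HTRF cAMP detection.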
# ClpP mod – qHTS Assay for Activators of ClpP | ATP-dependent Clp protease proteolytic subunit (Bacillus subtilis (strain 168)), P80244 | purified B. subtilis ClpP, FRET peptide cleavage, 20 min | Potency, µM (top dose mostly 57.5 µM), inactives show top-dose activity change, negative = active | actives 1.9% (n = 340,000) | AID 651965, 2013; active = well fitted falling curve with a large enough effect; inconclusive = small, poorly fitted or top-dose-only effect; inactive = no such curve, though single readings can be large or run the other way; also: potency is read from the fitted curve at half-maximal effect; the source files actives as falling curves though it sought activators and does not explain the sign; nearly all actives have a fitted effect of over 65% in size; many hits overshoot -100%
# Target sequence (P80244 whole entry, looked up): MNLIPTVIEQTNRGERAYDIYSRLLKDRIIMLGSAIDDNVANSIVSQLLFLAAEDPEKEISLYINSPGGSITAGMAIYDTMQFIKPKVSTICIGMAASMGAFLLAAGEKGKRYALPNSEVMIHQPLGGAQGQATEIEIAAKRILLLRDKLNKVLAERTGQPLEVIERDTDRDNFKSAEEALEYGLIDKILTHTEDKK
#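 FRET quenching reversal measured ClpP activation: 10 microg/mL B. subtilis ClpP at pH 8 with the FRET-FV decapeptide, read at 430 nm after 320 nm excitation. The 20-min minus 0-min signal was scaled between DMSO/no-enzyme wells and ADEP (5.8 microM final).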
# Starred values were filed as active, the others as inactive; ? = inconclusive; . = not tested or not shown; [ ] = remark or other dose.
item	canonical_smiles	TRPV1 potentiator	ClpP mod	TRPML1 blocker	Menin MLL FP FL	Sfp inh	gsp antag	gsp agonist
1	O=S(=O)(c1cccc2cccnc12)N1CCN(Cc2ccccc2)CC1	7	.	27	-1.4	6%	-3%	-1%[15.4 µM]
2	O=C(c1ncc[nH]1)c1ccco1	8	-2.0%	7	-1.4	-12%	13%	2%
3	CC(C)CNS(=O)(=O)c1ccc(CCC(=O)O)cc1	2	-25%	-1	3.3	21%	-4%	-1%
4	COc1ccc(CNC(=O)CN2C(=O)CSc3ccc(S(=O)(=O)N4CCOCC4)cc32)cc1	3	1.4%	0	-2.8	13%	8%	15%
5	COc1cc(C(=O)O)ccc1O	?	-0.7%	11	-0.5	5%	5%	1%
6	Cc1c(CCC(=O)N[C@@H](CC(C)C)C(=O)O)c(=O)oc2c(C)c3oc4c(c3cc12)CCCC4	12	.	10	4.5	11%	-1%	14%
7	Cc1ccc(-n2c(CSc3nc(C)cc(C)n3)nnc2SCC(=O)NCc2ccco2)cc1	-10	0.2%	20	1.8	?	-14%	16%
8	NS(=O)(=O)c1ccc(NC(=O)Nc2ccc(C(F)(F)F)cc2)cc1	-1	.	1	6.8	12%	2%	-5%
9	COC(=O)c1c(NC(=O)CCCOc2cccc(C)c2)sc2c1C(C(=O)OC)CC2 (configuration not stated)	-2	-18%	-22	.	.	.	.
10	N#Cc1nc(-c2ccccc2)oc1NCCCn1ccnc1	2	3.9%	5	4.4	-3%	-4%	1%
11	Cc1noc(C)c1C(=O)OCC(=O)Nc1cc(S(=O)(=O)N2CCOCC2)ccc1Cl	-2	.	.	-2.2	6%	.	.
12	CC(C)C12CN3CC(C(C)C)(CN(C1)C3c1ccc3c(c1)OCO3)C2=O (configuration not stated)	-7	-0.3%	26	0.7	-3%	-11%	-4%
13	CN(C)S(=O)(=O)c1ccc(N2CCCC2)c(C(=O)OCC(=O)NC2CCCCC2)c1	4	-2.7%	-8	.	.	0%	-15%
14	CCC(C(=O)OCC(=O)Nc1ccccc1-c1ccccc1)c1ccccc1 (configuration not stated)	-7	0.1%	-21	9.0	-7%	-31%	0%
15	COc1cc(OC)cc(C(=O)OCC(=O)c2cc(C)n(CC3CCCO3)c2C)c1 (configuration not stated)	-3	2.4%	20	.	.	?	-5%
16	COC(CNC(=O)c1ccc(-n2c(=S)[nH]c3ccccc3c2=O)cc1)OC	-14	.	5	0.0	-22%	-13%	11%[15.4 µM]
17	C/C(CC(=O)Nc1ccc(Cl)cc1)=N\NC(=O)C(=O)NCCO	3	-2.9%	4	2.7	-8%	9%	-1%[15.4 µM]
18	O=C(CSc1nc(C(F)(F)F)cc(=O)[nH]1)N1CCOCC1	0	-0.4%	31	.	.	9%	-13%
19	O=C(Nc1ccccc1N1CCN(c2ccccc2)CC1)c1cccc(F)c1	-2	-24%	20	-0.1	11%	-7%	-43%
20	COc1ccc(C)cc1NC(=O)CO/N=C(\N)CC(=O)NC1CCCCC1	27	0.8%	-5	.	.	-7%	?
21	C/C(O)=C(\N=Nc1cc(C)ccc1O)C(N)=O	-3	.	-2	16	1%	2%	18%[15.4 µM]
22	CCN1CCc2c(sc(NC(=O)CN3C(=O)c4ccccc4C3=O)c2C(N)=O)C1	-4	0.3%	24	-3.2	4%	-1%	7%
23	COC(OC)c1ccc(C#N)c(=O)[nH]1	6	3.3%	-16	-1.0	20%	-17%	-10%
24	CCOc1ccc(S(=O)(=O)N(CC(=O)NCC(F)(F)F)Cc2ccco2)cc1	1	0.0%	-1	.	28%	10%	-18%
25	N#Cc1ccc(OCC(=O)OCC(=O)NC2CC2)cc1	.	-1.8%	3	.	.	-19%	-9%
26	CCOC(=O)c1ccccc1NC(=O)Cn1cnc2c(cnn2-c2ccc(OC)cc2)c1=O	.	-16%	-4	.	.	13%	4%
27	CCOc1ccc(S(=O)(=O)Nc2ccccc2C(=O)N2CCCC2)cc1	-9	.	-12	-2.7	9%	-4%	-2%[15.4 µM]
28	CN(C)S(=O)(=O)c1ccc(C(=O)Nc2cc(=O)n(C)c(=O)n2C)cc1	1	-1.5%	-9	5.5	3%	5%	12%
29	CCC(C)[C@H](NC(=O)Nc1cccc(OC)c1)C(=O)OC (some centres not stated)	-4	3.7%	-19	3.2	6%	9%	7%
30	COc1ccc(NC(=O)C2CCOC(C)(C)C2)cc1 (configuration not stated)	.	.	19	0.6	8%	2%	15%[15.4 µM]
31	COc1ccc(-c2oc3ccccc3c2C(=O)Oc2ccccc2)cc1	2	4.7%	3	-2.8	-12%	-1%	3%
32	Cc1ccc(/C=C/C(=O)c2c(C)nc3ccccn23)cc1	-1	0.6%	79	6.2	7%	-19%	-16%
33	CN(C(=O)c1cccc(NC(=O)Cc2ccc(NC(=O)C3CCCN(S(=O)(=O)c4cccc([N+](=O)[O-])c4)C3)cc2)c1)C1CCC1 (configuration not stated)	.	-0.7%	-6	.	.	0%	.
34	COc1ccc(-c2c[n+](CC(=O)c3ccccc3)c3n2CCCCC3)cc1	8	-0.6%	2	0.8	-1%	3%	-1%
35	CC(=O)Nc1ccc2c(c1)C(=O)N(c1cccc(C)c1)C2=O	2	.	-15	4.1	22%	5%	12%[15.4 µM]
36	Cc1ccc(C)c(Nc2c([N+](=O)[O-])cc(C(=O)N3CC(=O)Nc4ccccc43)cc2[N+](=O)[O-])c1	-8	0.4%	5	2.0	-1%	-17%	-17%
37	C[C@H](CO)N1C[C@H](C)[C@@H](CN(C)C(=O)Nc2ccc3c(c2)OCO3)Oc2c(NC(=O)Nc3ccc(C(F)(F)F)cc3)cccc2C1=O	.	-1.2%	7	.	.	-24%	.
38	CCn1cc(C(=O)N2CCN(C(=O)c3ccco3)CC2)c2cc(OC)c(OC)cc2c1=O	7	-28%	11	3.5	11%	11%	-4%
39	S=c1nc(-c2ccc(Br)cc2)[nH]c2ccccc12	2	-0.4%	.	2.5	-1%	-1%	?
40	CCOC(=O)Cc1c(C)nc2c(-c3cccc(Br)c3)cnn2c1C	15	7.6%	25	-3.4	-2%	7%	2%

# A second format for part of the listing above.
# Sequence of screens: TRPV1 potentiator	ClpP mod	TRPML1 blocker	Menin MLL FP FL	Sfp inh	gsp antag	gsp agonist
24: CCOc1ccc(S(=O)(=O)N(CC(=O)NCC(F)(F)F)Cc2ccco2)cc1
→ 1	0.0%	-1	.	28%	10%	-18%
25: N#Cc1ccc(OCC(=O)OCC(=O)NC2CC2)cc1
→ .	-1.8%	3	.	.	-19%	-9%
26: CCOC(=O)c1ccccc1NC(=O)Cn1cnc2c(cnn2-c2ccc(OC)cc2)c1=O
→ .	-16%	-4	.	.	13%	4%
27: CCOc1ccc(S(=O)(=O)Nc2ccccc2C(=O)N2CCCC2)cc1
→ -9	.	-12	-2.7	9%	-4%	-2%[15.4 µM]
28: CN(C)S(=O)(=O)c1ccc(C(=O)Nc2cc(=O)n(C)c(=O)n2C)cc1
→ 1	-1.5%	-9	5.5	3%	5%	12%
29: CCC(C)[C@H](NC(=O)Nc1cccc(OC)c1)C(=O)OC (some centres not stated)
→ -4	3.7%	-19	3.2	6%	9%	7%
30: COc1ccc(NC(=O)C2CCOC(C)(C)C2)cc1 (configuration not stated)
→ .	.	19	0.6	8%	2%	15%[15.4 µM]
31: COc1ccc(-c2oc3ccccc3c2C(=O)Oc2ccccc2)cc1
→ 2	4.7%	3	-2.8	-12%	-1%	3%
32: Cc1ccc(/C=C/C(=O)c2c(C)nc3ccccn23)cc1
→ -1	0.6%	79	6.2	7%	-19%	-16%
33: CN(C(=O)c1cccc(NC(=O)Cc2ccc(NC(=O)C3CCCN(S(=O)(=O)c4cccc([N+](=O)[O-])c4)C3)cc2)c1)C1CCC1 (configuration not stated)
→ .	-0.7%	-6	.	.	0%	.
34: COc1ccc(-c2c[n+](CC(=O)c3ccccc3)c3n2CCCCC3)cc1
→ 8	-0.6%	2	0.8	-1%	3%	-1%
35: CC(=O)Nc1ccc2c(c1)C(=O)N(c1cccc(C)c1)C2=O
→ 2	.	-15	4.1	22%	5%	12%[15.4 µM]
36: Cc1ccc(C)c(Nc2c([N+](=O)[O-])cc(C(=O)N3CC(=O)Nc4ccccc43)cc2[N+](=O)[O-])c1
→ -8	0.4%	5	2.0	-1%	-17%	-17%
37: C[C@H](CO)N1C[C@H](C)[C@@H](CN(C)C(=O)Nc2ccc3c(c2)OCO3)Oc2c(NC(=O)Nc3ccc(C(F)(F)F)cc3)cccc2C1=O
→ .	-1.2%	7	.	.	-24%	.

# Next entries
item	canonical_smiles	TRPV1 potentiator	ClpP mod	TRPML1 blocker	Menin MLL FP FL	Sfp inh	gsp antag	gsp agonist
41	Cc1cccc(C)c1-n1c(C)nn(Cc2ccc([N+](=O)[O-])cc2)c1=O	?	.	-15	1.2	2%	10%	-11%[15.4 µM]
42	O=c1/c(=C/c2ccco2)sc2nc(-c3ccccc3Br)nn12	3	2.8%	11	23	-22%	-19%	-26%
43	CCC1(CC)Cc2ccccc2-c2nc(CCl)[nH]c(=O)c21	-7	-8.1%	21	-9.1	7%	3%	-33%[inhibitor]
44	COc1ccc(Cl)cc1NC(=O)CN(C)C(=O)Cn1c(=O)oc2ccccc21	-34	-6.0%	7	.	.	5%	-75%[inhibitor]
45	c1cncc(CSc2nnc3ccc(-c4cccs4)nn23)c1	-33	-4.1%	.	1.4	-19%	7%	29%
46	CCCS(=O)(=O)N1CCCC(C(=O)c2cccc(Cl)c2)C1 (configuration not stated)	-11	?	-8	-1.3	-3%	8%	3%[15.4 µM]
47	CC(=O)c1cnc(-c2ccccc2Cl)s1	4	0.3%	-3	0.3	14%	-5%	21%
48	Cn1c(=O)c2c(ncn2CC(O)CNc2ccc(Br)cc2)n(C)c1=O (configuration not stated)	1	1.9%	1	-0.1	11%	9%	?

# Compound activity (PubChem BioAssay)
